PABP polyA inh: blocks human PABP binding to poly(A) RNA. inhibition, % at 35 µM. 290,000 compounds, 1% hits. fluorescence polarization;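 active = 50% or more with normal probe brightness, or confirmed in later tests; inconclusive = above 50% with abnormal brightness, or retests that disagree; inactive = below 50% or failed in later tests; about a fifth of its hits are not listed in these tables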;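 also: calls also rest on retests at 20 µM and on dose response follow-up; controls were probe without protein and protein plus probe with vehicle; some compounds called inactive have numbers as strong as hits; many hits fall short of the cut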
Target sequence (P11940 whole entry, looked up): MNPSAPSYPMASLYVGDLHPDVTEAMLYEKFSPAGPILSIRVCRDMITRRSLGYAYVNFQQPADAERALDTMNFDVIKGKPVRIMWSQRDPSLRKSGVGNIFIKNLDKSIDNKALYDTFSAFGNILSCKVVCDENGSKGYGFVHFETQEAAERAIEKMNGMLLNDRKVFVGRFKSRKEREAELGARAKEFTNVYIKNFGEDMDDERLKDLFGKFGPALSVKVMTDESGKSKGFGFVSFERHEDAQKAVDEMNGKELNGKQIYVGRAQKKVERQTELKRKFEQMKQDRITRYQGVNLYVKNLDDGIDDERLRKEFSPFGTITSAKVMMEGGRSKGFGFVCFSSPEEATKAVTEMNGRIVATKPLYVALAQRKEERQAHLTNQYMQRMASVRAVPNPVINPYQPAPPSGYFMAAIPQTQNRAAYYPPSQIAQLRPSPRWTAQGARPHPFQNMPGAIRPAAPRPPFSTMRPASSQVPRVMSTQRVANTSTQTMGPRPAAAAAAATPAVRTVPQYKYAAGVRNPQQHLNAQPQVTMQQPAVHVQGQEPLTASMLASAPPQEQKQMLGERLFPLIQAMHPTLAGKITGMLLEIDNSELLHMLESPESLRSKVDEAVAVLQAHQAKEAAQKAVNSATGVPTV
UUG fidelity: yeast start codon fidelity modulation | S. cerevisiae UUG-firefly luciferase reporter, luminescence/redox ratio | activity score, % at 18.7 µM | 350,000 compounds, 0.13% hits;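 active = replicate mean at a twofold rise or more, about +100% in these data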;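 also: firefly luciferase made from a UUG start codon reports start codon fidelity; reporter light over untreated wells divided by growth signal over untreated wells; some hits fall short of that in this replicate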
Rce1 inh: blocks yeast Ras-converting enzyme | Q03530 | yeast membranes, quenched prenylated peptide cleavage fluorescence | calls only | 290,000 compounds, 0.27% hits;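 active = fall in fluorescence gain of 50% or more versus controls, with final raw signal at or below 3038400; inconclusive = same 50% fall but final raw signal above 3038400; inactive = fall in fluorescence gain under 50%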;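 also: plate controls were neutral control wells for no effect and wells lacking membranes for full effect; tested at 10 µM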
Target sequence (Q03530 whole entry, looked up): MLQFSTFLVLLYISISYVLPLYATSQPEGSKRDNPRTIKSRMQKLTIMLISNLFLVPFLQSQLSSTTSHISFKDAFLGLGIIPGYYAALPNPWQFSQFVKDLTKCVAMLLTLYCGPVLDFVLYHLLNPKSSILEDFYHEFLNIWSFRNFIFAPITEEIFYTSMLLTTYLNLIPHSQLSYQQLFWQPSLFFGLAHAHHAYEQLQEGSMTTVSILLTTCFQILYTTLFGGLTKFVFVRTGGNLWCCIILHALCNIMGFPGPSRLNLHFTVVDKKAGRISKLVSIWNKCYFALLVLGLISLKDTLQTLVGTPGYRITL
HIV Env fusion: inhibitors of HIV Env-mediated cell fusion; AID 651610; HeLa-JRFL Env/CEM21 cell fusion, luciferase; inhibition, % at 12.3 µM; 360,000 compounds, 1.1% hits;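 active = mean replicate inhibition score of at least 50 and every replicate individually at or above 50; inconclusive = only one of the two criteria met; inactive = mean below 50 and not all replicates reaching 50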;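 also: 0% = plate neutral controls and 100% = maraviroc near 300 nM; one replicate is shown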
eIF4H inh: inhibitors of RNA binding by human eIF4H | Q15056 | eIF4H fluorescence polarization binding assay | inhibition, % at 35 µM | 290,000 compounds, 0.94% hits | AID 2012;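 active = 50% or more with normal probe brightness, or confirmed in later tests; inconclusive = above 50% with abnormal brightness, or retests that disagree; inactive = below 50% or failed in later tests; about a fifth of its hits are not listed in these tables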;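 also: calls also rest on retests at 20 µM and on dose response follow-up; 0% = protein and probe with vehicle and 100% = probe without protein; strong numbers were not always called active; many hits fall short of the cut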
MT1-MMP act inh: MT1-MMP (human) activation inhibition; HT1080 RFP-PRO-GFP cells, GFP/RFP ratio fluorescence, overnight; percent of plate control window, DMSO zero; GFP/RFP ratio change, % at 20 µM; 360,000 compounds, 0.061% hits;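 active = GFP/RFP ratio change of at least 30% with cell ATP level not reduced by more than half and red fluorescence within 50% of control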; also: strong numbers were not always called active
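Assay system – RFP-PRO-GFP reporter HT1080 cells · Compound dosing – single dose of 20 µM compound, 1% DMSO final · Incubation – overnight compound exposure at 37 °C · Measure – GFP/RFP fluorescence ratio · Benchmarks – DMSO wells and RFP-L50D-GFP cells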
CSC inhib: blocks cancer stem cells; inhibition, % at 7.5 µM; cancer stem cell-like cells viability, luminescence; AID 2717; 300,000 compounds, 1.1% hits;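 active = mean at 75% or more and at least half the replicates too; inconclusive = mean and replicates disagree; tested in HMLE shEcad cells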;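 also: 0% = median of negative and 100% = median of positive control wells; the first replicate is given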
eIF4H inh retest: further read-out of eIF4H inh, marked with its call; inhibition, %; compound at 20 µM; confirmation average;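 mean of two retest wells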
PABP polyA inh retest: also measured in PABP polyA inh; calls as there; inhibition, %; compound at 20 µM; confirmation repeats;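 mean of two retest wells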
MT1-MMP act inh RFP: recorded beside MT1-MMP act inh, whose call it bears; RFP signal change, %; measured here: RFP expression control read;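 0 = vehicle wells; hits needed this value within 50% of zero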
The depositor's hits bear a star; i = inactive; ? = inconclusive; . = no result given; & = joins results of further samples.

SMILES	PABP polyA inh	UUG fidelity	Rce1 inh	HIV Env fusion	eIF4H inh	MT1-MMP act inh	MT1-MMP act inh RFP	CSC inhib	others
Cc1ccc(NC(=O)CCCCCN2C(=O)c3ccccc3C2=O)nc1	-6	-5	i	20	-1	1	4	-4
CCCn1c(/N=C/c2ccccc2O)nc2ccccc21	4	3	.	-149	5	-4	0	8
O=C(CN1C(=O)c2ccccc2S1(=O)=O)c1ccccc1	?	-10	i	.	2	3	4	-7
CCc1nc2c(OCc3ccccc3C)cccn2c1N(C)C(=O)CC(C)C	.	-16	.	-1	.	1	-4	.
CCc1nnc(NC(=O)c2cc(C)nc3ccccc23)s1	6	-3	i	4	3	1	5	0
CN(C)S(=O)(=O)c1cccc(NC(=S)N/N=C/C2CC=CCC2)c1 (centres undefined)	-5	.	i	-39	54	-1	1	-6	eIF4H inh retest=-4;PABP polyA inh retest=-1
O=c1[nH]c(CN2CCN(S(=O)(=O)c3ccccc3C(F)(F)F)CC2)nc2sc3c(c12)CCCC3	-5	.	i	-30	-8	2	-3	19
COc1ccc(S(=O)(=O)N2CCN(c3ccccn3)CC2)cc1[N+](=O)[O-]	-2	9	i	15	-14	-1	-4	22
N=C(N)SCCc1cccc(CCSC(=N)N)c1	.	-6	i	.	.	-1	-2	-13
COC(=O)c1cc2sc(Cl)cc2n1CC(=O)Nc1cccc(SC)c1	8	-16	i	.	2	8	-5	3
Cc1ccc(C)c(C(=O)c2ccccc2NC(=O)c2ccccn2)c1	-3	1	i	-10	-4	-5	-7	70
O=C1SCCC1NC(=O)C(c1ccccc1)c1ccccc1 (centres undefined)	-8	-3	i	4	-4	-2	6	-3

Structures above that have a halogen (two):
SMILES	PABP polyA inh	UUG fidelity	Rce1 inh	HIV Env fusion	eIF4H inh	MT1-MMP act inh	MT1-MMP act inh RFP	CSC inhib	others
O=c1[nH]c(CN2CCN(S(=O)(=O)c3ccccc3C(F)(F)F)CC2)nc2sc3c(c12)CCCC3	-5	.	i	-30	-8	2	-3	19
COC(=O)c1cc2sc(Cl)cc2n1CC(=O)Nc1cccc(SC)c1	8	-16	i	.	2	8	-5	3

The list continues:
SMILES	PABP polyA inh	UUG fidelity	Rce1 inh	HIV Env fusion	eIF4H inh	MT1-MMP act inh	MT1-MMP act inh RFP	CSC inhib	others
Cc1ccc2nc(-c3ccccn3)cc(C(=O)Nc3ccc4c(c3)OCO4)c2c1	12	-23	i	-7	3	.	.	7
C=CC[C@H](CC(=O)NCCO)C(=O)N[C@H](COC(=O)[C@H](CC=C)CC(=O)OC(C)(C)C)Cc1c[nH]c2ccccc12	.	12	.	5	.	-1	1	-18
CCCCn1c(N)c(N(CCOC)C(=O)c2ccc(-c3ccc(C(C)=O)cc3)o2)c(=O)[nH]c1=O	.	-11	i	-14	.	-3	3	-1
O=C(Nc1ccc(-c2nc3ccccc3[nH]2)cc1)C1CCCO1 (centres undefined)	-7	-58	i	.	-3	4	2	35
O=C(O)c1ccccc1C(=O)NNc1ccc(F)cc1F	13	.	i	?	-6	-4	1	11
Cc1ccc(S(=O)(=O)N2Cc3ccccc3CC2C(N)=O)cc1 (centres undefined)	.	-9	.	-3	.	5	3	.
COCCn1c(SCC(=O)Nc2ccc(NC(C)=O)cc2)nc2c([nH]c3ccccc32)c1=O	3	-16	i	-8	13	-6	1	0
CCOC(=O)c1c(C)[nH]c(C(=O)OC/C(O)=C(\C#N)c2nc3ccccc3[nH]2)c1C	19	-26	.	.	18	-15	2	61
CCc1ccc(C(=O)COC(=O)c2cncc(Br)c2)cc1	55	.	i	34	1	-5	-1	-11	eIF4H inh retest=-8;PABP polyA inh retest=-7
CC(C)CN(C(=O)COC(=O)CCc1c[nH]c2ccccc12)c1c(N)n(Cc2ccccc2)c(=O)[nH]c1=O	.	-6	i	0	.	0	-1	-3
Cc1ccc(S(=O)(=O)NCCC(=O)Nc2nnc(C)s2)cc1	-11	-6	i	.	-3	3	5	-11
COc1ccc(CCN2C(=NC(=O)C(C)C)SC3CS(=O)(=O)CC32)cc1OC (centres undefined)	6	.	i	-19	-2	3	3	-8
O=C(NCCC1=CCCCC1)c1cnsn1	11	0	i	.	-9	-4	-3	-14
C[C@H]1CN([C@@H](C)CO)C(=O)CCCn2cc(nn2)CO[C@@H]1CN(C)C(=O)Nc1cccc(Oc2ccccn2)c1	.	-9&-2	.	15	.	4	5	.
Cc1ccc(S(=O)(=O)Nc2ccc(-c3csc(-c4ccccc4)n3)cc2)cc1	-23	-17	i	.	-8	-6	-7	112*
C#CCSc1nnnn1-c1ccc(Br)c(C)c1	0	-2	i	4	1	-3	2	-8
N#Cc1ccc(C(=O)OCC(=O)Nc2ccc(S(N)(=O)=O)cc2)cc1	1	.	i	6	-4	-3	-2	2
CCOC(=O)CN(Cc1sccc1C)C(=O)Nc1ccc(OCC)cc1	5	.	i	.	-7	3	4	-9
COc1cccc(/C=C/C(=O)OCCN2C(=O)c3ccccc3C2=O)c1	-11	-1	i	-14	-11	4	0	-5
COc1ccc(S(=O)(=O)N2CCOCC2)cc1NC(=O)C1CC1	.	0	.	.	.	0	1	-18
Cc1ccccc1-c1nn(-c2ccc(F)cc2F)cc1CNCCCO	-2	-4	i	34	-1	1	6	4
CCOc1ccc(Oc2ccc(S(=O)(=O)N3CCOCC3)cc2N)cc1	17	.	i	6	20	2	-20	-14
CCCC(=O)N(c1ccc(F)cc1)C1C=CS(=O)(=O)C1 (centres undefined)	2	-22	i	.	6	3	1	-24
Cc1noc(NS(=O)(=O)c2ccc(NC(=O)c3cnc4n(c3=O)CCS4)cc2)c1C	-11	.	i	4	-1	-2	-3	-7
CC(=O)Nc1ccc(NC(=O)C(Cc2ccccc2)NC(=O)C2CCCCC2)cc1 (centres undefined)	2	-19	i	-26	2	2	-3	-3
Cc1cc(NC(=O)CN2C(=O)/C(=C/c3ccccc3F)SC2=S)no1	1	.	i	0	6	5	6	-2
O=C(NCCCN1CCOCC1)C(=O)NCC1OCCN1S(=O)(=O)c1ccc(Cl)cc1 (centres undefined)	.	-12	.	18	.	0	3	.
CCCN(CCC)c1nc(C#N)nc(N(CCC)CCC)n1	-8	.	i	-18	-9	-1	-4	27
CSc1nc(C)cc(OCC(=O)N/N=C/c2ccccc2O)n1	-8	.	i	19	2	4	-4	89*
CCC(C)c1ccc(NC(=S)NN2CCOCC2)cc1 (centres undefined)	5	.	i	-28	0	2	6	.
COc1cc2nc3n(c(=O)c2cc1OC)-c1cc2ccccc2cc1C(=O)NC3CC(C)C (centres undefined)	.	-2	.	-40	.	-5	-12	.
CCCC(=O)Nc1nnc(SCC(=O)NC2CC2)s1	4	-9	.	-7	-10	-1	4	-3
CC(=O)Nc1ccc(CN2CCCN(C)CC2)cc1	-4	0	i	-17	2	-2	0	-2
CCN(c1ccccc1)S(=O)(=O)c1ccc(C(=O)NCCc2ccc(S(N)(=O)=O)cc2)cc1	2	0	.	5	16	3	-2	-7
CCCS(=O)(=O)NC(=O)C1(C)CCN(C(=O)C2(c3ccc(Cl)cc3)CCCC2)C1 (centres undefined)	.	-5	.	15	.	3	11	.
CN=C(Nc1cccnc1)c1ccccc1	8	-14	i	-3	-2	0	5	-15
CC(C)c1ccc(NC(=S)N2CCCC(c3ccc(F)cc3)=N2)cc1	-6	.	.	3	-11	-5	-1	20
O=C(CSCC(=O)N1CCCCC1)Nc1nc(-c2cccs2)cs1	-6	1	i	0	0	2	4	0
COc1ccc(S(=O)(=O)N(C)C)cc1NC(=O)COC(=O)Cn1cnc2ccccc2c1=O	.	8	.	.	.	2	1	-9
COc1ccc(Cl)cc1N(CC(=O)Nc1ccccc1SC)S(C)(=O)=O	5	15	i	-59	4	0	-2	4
CC(C)c1ccc(-c2nc(N3CCCC3)nc3n[nH]c(N)c23)cc1	3	-12	i	27	-6	-3	-2	37
Cc1cccc(NC(=O)c2ccc(C(=O)c3ccccc3)cc2)n1	.	-6	i	.	.	-5	-19	28
C=CCN1C(=O)C(Cc2cccc(C)c2)SC1=Nc1ccc(C(=O)O)cc1 (centres undefined)	9	-10	i	-24	-5	-3	4	-9
COc1ccc(NC(=O)c2ccccc2-c2ccccc2)cc1	-12	.	i	-10	3	0	-3	-8
O=c1c2ccccc2nc(COc2ccccc2)n1/N=C/c1cn[nH]c1-c1ccccc1	0	-3	i	.	-8	1	-5	3
COc1cccc(C2(C)NC(=O)N(CC(=O)Nc3ccc(N4CCOCC4)cc3)C2=O)c1 (centres undefined)	.	-7	.	-3	.	0	3	.
Cn1c(CCn2ccccc2=O)nc2cc(NC(=O)COc3ccccc3)ccc21	-3	7	i	-2	10	1	0	9
CC1CCC(NC(=O)CSc2ccc(S(=O)(=O)N(C)C)cn2)CC1 (centres undefined)	.	-16	.	.	.	5	1	-11
CC(Oc1ccc(F)cc1)C(=O)Nc1cc(C(F)(F)F)ccc1-n1cncn1 (centres undefined)	.	.	i	9	.	-3	-9	9
COc1ccc(C(=O)CC(=O)Nc2ccc([N+](=O)[O-])cc2)cc1	3	-5	i	-6	-8	3	-5	.
CC1=C(C(=O)Nc2ccccc2C(=O)NCCCN2CCN(C)CC2)SCCO1	-9	-2	i	1	-2	-1	3	-4
O=C(CCc1n[nH]c(=O)[nH]c1=O)N1CCOCC1	-8	-8	i	-20	9	-2	3	-8
CCOc1ccc2c(c1)C(=NNC(=O)c1ccncc1)c1cc(OCC)ccc1-2	1	-13	i	-2	24	5	-11	52
COc1ccc(C(=O)N2CC3(CC(c4ccc(Cl)cc4)=NO3)C[C@H]2C(=O)NCC(N)=O)cc1 (some centres undefined)	8	21	i	11	3	-11	3	-2
CCS(=O)(=O)C1=NSC2=NC(=O)/C(=C\c3ccc(OS(=O)(=O)c4ccccc4)c(OC)c3)C(=N)N21	18	3	i	.	10	-8	4	-8
COc1ccc(-c2nnc3n2-c2ccccc2SC3)cc1OC	6	-1	i	.	0	-5	-3	12
COc1ccc(/C=C2\SC(=S)N(CCC(=O)NCCCN3CCOCC3)C2=O)cc1	10	-21	i	0	0	-1	0	18
COc1cccc(C(=O)Nc2c3c(nn2-c2cccc(C)c2C)CS(=O)C3)c1OC (centres undefined)	1	-15	i	.	1	-1	2	-8
Nc1nn(-c2ccccc2)c2ccc([N+](=O)[O-])cc12	1	2	i	4	-3	5	-1	3
CCn1c(C)nc2cc(C(=O)NNC(=S)NC(=O)c3ccccc3)ccc21	65*	.	i	16	-1	0	1	1	eIF4H inh retest=48;PABP polyA inh retest=92*
Next part
SMILES	PABP polyA inh	UUG fidelity	Rce1 inh	HIV Env fusion	eIF4H inh	MT1-MMP act inh	MT1-MMP act inh RFP	CSC inhib	others
CC(=O)Nc1ccc(-c2ccnc3c2CC(C(=O)Nc2ccccc2)O3)cc1 (centres undefined)	.	-10	.	-46	.	-6	-7	.
CSc1nc2nccc(-c3ccc(-c4ccccc4)cc3)n2n1	14	-11	i	.	2	-6	-6	-5
CN(C)S(=O)(=O)c1cccc(NC(=O)c2ccccc2OCc2ccc(F)cc2)c1	7	-11	i	14	10	0	-8	.
C=CCN(C(=O)COC(=O)c1cc[n+]([O-])cc1)c1nc(-c2ccccc2)cs1	.	-19	.	.	.	3	-1	-12
Cc1cc2ncn(CCCCOc3ccccc3)c2cc1C	0	-24	i	11	0	0	-8	31
COc1cc(C2C(C#N)=C(N)Oc3n[nH]c(-c4cccnc4)c32)ccc1OCC(N)=O (centres undefined)	-4	.	i	-22	-3	-1	-4	-8

Screening results deposited in PubChem BioAssay by several laboratories.

A portion of the library; the hit share may differ from the screen's.
